# Screening data deposited in PubChem by National Center for Advancing Translational Sciences (NCATS).
# A647 autofl: compound autofluorescence in A647 spectral region | AID 592 | Compound fluorescence, A647 channel (570/671 nm), Tris buffer | 59,000 tested, under 10 active | max dye-equivalent concentration, M; active means above 1 µM dye equivalent; inconclusive means 0.1 to 1 µM; inactive means 0.1 µM or less;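 note: values scaled relative to a standard on each plate; highest value over a series up to 38 µM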
#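 Each compound's intrinsic fluorescence at 570 nm excitation and 671 nm emission is measured across its concentration series in 100 mM Tris, pH 8.0, after 15 min at room temperature, and reported relative to an A647 curve.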
# AID923: qHTS Assay for Allosteric/Competitive Inhibitors of Caspase-1: Spectroscopic Profiling in AFC Spectral Region; 75,000 tested, 1.1% active; compound fluorescence, AFC spectral region (405/520 nm); almost no hit is shown here; Potency, µM (highest dose often 57.5 µM), without a hit: top-dose fluorescence increase, usual class: activators; active = well fitted activation curve with a large enough effect; inconclusive = small, poorly fitted or top-dose-only effect;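 note: potency is the fitted concentration of half-maximal effect; 0% is about no effect; scaled to a free AFC standard on each plate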
#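 Compound autofluorescence profiled at 405 nm ex/520 nm em during kinetic caspase 1 run (50 nM enzyme, 5 uM Ac-WEHD-AFC, HEPES pH 7.5, 10 mM DTT). Titration up to 57 uM; baseline from regression intercept, normalized to AFC standard curve.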
# TSHR agonist: activates the human thyroid stimulating hormone receptor; P16473; HEK293-CNG-TSHR cells (CNG channel as cAMP sensor), membrane potential dye, cAMP; Potency, µM (titrated, usually from 57.1 µM), inactives show at the highest dose activation, most hits filed as activators; 73,000 tested, 0.48% active; active = well fitted activation curve of enough size with the parental cells flat; inconclusive = any curve in the parental cells; inactive = parental cells flat and receptor cells flat or falling; note: potency is the fitted concentration of half-maximal effect; % of control where 0% means no effect; weak receptor curves with flat parental cells got no call and are not listed
# Target sequence (P16473 whole entry, looked up): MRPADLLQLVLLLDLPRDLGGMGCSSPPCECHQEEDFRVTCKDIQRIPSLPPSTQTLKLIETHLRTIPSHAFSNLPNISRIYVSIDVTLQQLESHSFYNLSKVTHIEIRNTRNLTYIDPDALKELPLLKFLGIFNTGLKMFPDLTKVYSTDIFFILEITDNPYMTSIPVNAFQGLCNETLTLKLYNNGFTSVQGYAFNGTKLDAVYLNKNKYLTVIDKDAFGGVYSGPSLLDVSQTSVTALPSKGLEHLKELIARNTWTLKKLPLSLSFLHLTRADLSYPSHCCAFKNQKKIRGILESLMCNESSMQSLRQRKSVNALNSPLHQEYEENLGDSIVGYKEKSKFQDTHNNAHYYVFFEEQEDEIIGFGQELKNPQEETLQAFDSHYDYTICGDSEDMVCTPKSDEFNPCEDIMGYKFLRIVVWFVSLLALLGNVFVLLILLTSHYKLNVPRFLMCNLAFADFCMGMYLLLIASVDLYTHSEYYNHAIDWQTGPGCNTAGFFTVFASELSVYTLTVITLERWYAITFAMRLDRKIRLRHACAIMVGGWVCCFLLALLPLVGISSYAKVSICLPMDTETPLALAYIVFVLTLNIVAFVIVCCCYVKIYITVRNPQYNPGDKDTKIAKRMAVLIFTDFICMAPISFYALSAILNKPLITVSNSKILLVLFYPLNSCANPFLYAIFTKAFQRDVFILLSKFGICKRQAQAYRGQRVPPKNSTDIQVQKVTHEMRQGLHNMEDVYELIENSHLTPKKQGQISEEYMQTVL
#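 HEK 293 cells stably expressing TSHR and a cAMP-gated CNG channel; parental CNG-only cells as counterscreen. Cells preloaded 60 min with membrane potential dye plus 100 uM RO 20-1724, then compound 30 min; fluorescence read at 590 nm.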
# Resorufin autofl: compounds fluorescent in resorufin spectral region; Compound fluorescence, resorufin region 547/598 nm, buffer; stronger effect = higher value; max dye-equivalent concentration, M; 59,000 tested, 0.04% active; active = above 10 nM dye equivalent; inconclusive = 1 to 10 nM; inactive = 1 nM or less; a few of its hits are not listed in these tables; note: highest value over a series up to 38 µM
#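 Dye-equivalent concentration values derive from comparing each well's 547/598 nm fluorescence against resorufin standards included on every plate. Incubation was 15 min at room temperature in 100 mM Tris, pH 8.0.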
# A488 autofl: A488 region autofluorescence | compound autofluorescence, A488 spectral region, dye equivalency; stronger effect = higher value | max dye equivalency, M | 59,000 tested, 0.1% active; active = above 10 nM dye equivalent; inconclusive = 1 to 10 nM; inactive = 1 nM or less; about half of its hits are not listed in these tables;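 note: highest value over a series up to 38 µM; compound alone in buffer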
#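 Spectroscopic profiling in the A488 region: compounds in pH 8.0 Tris (100 mM), 15 min RT, CCD imaging with 480 nm excitation and 540 nm emission; responses normalized against A488 dye standards.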
# Numbers without * were called inactive; i = inactive; ? = inconclusive; . = no result given; [ ] = another dose, or the depositor's remark. Some of the compounds tested. The share of hits here may be higher or lower than overall.
# The opening two entries, to show the layout:
SMILES,A647 autofl,AID923,TSHR agonist,Resorufin autofl,A488 autofl
O=C(Nc1cccc(F)c1)N1CCC2(CCNCC2)CC1,1e-09,-2.6%,-2%,i,i
COc1ccc(C2=CC(c3cccc(OC)c3)n3nnnc3N2)cc1 (centres undefined),2.6e-08,.,.,i,i

# Main list (from the top)
SMILES,A647 autofl,AID923,TSHR agonist,Resorufin autofl,A488 autofl
O=C(Nc1cccc(F)c1)N1CCC2(CCNCC2)CC1,1e-09,-2.6%,-2%,i,i
COc1ccc(C2=CC(c3cccc(OC)c3)n3nnnc3N2)cc1 (centres undefined),2.6e-08,.,.,i,i
N#C/C(=C/c1ccc(N2CCCCCC2)o1)c1ccc(F)cc1,4.9e-09,4.3%,-10%,i,i
Cc1cccc(-n2c(Cc3ccccc3)nnc2SCC(=O)N2CCOCC2)c1,8.7e-09,-1.1%,5%,i,i
CCOC(=O)c1cc2c(C(F)(F)F)cc(-c3cccnc3)nc2o1,1e-09,0.0%,-3%,i,i
CCOC(=O)c1[nH]c(C)c(C(=O)N2CCN(C(=O)c3ccco3)CC2)c1C,4.9e-09,-0.6%,2%[11.4 µM],i,i
CCNc1ncc2nc(C)c(=O)n(-c3ccc(OC)cc3)c2n1,4.9e-09,8.5%,7%,i,i
O=C(CSc1ccc2nnc(-c3ccccn3)n2n1)NCc1ccc2c(c1)OCO2,.,4.4%,?,.,.
CC(C)c1ccc(O)c(O)c(=O)c1 (tested in a mixture with another compound),3.9e-09,-1.5%[11.5 µM],-2%[11.4 µM],i,i
O=C(C1CCCCC1)N1CCCC(c2nc(-c3ccc(F)cc3)no2)C1 (centres undefined),6.4e-08,2.8%,12%,i,i
CN(CC(=O)NCc1ccc(F)cc1)S(=O)(=O)c1cccc2nsnc12,1.1e-09,1.1%,?,i,i
Cc1ccc(S(=O)(=O)NCc2ccco2)c(C)c1C,4.1e-09,-0.9%,-9%,i,i
CC(=O)c1c(O)cc(C)n(Nc2nc(C)cc(C)n2)c1=O,1e-09,0.8%,.,i,i
NC(=O)C1CCN(C(=O)c2cnn(-c3ccccc3)c2NC(=O)c2ccco2)CC1,.,-1.4%,-2%,.,.
COCCn1c(SCC(=O)NCC2CCCO2)nc2c(c1=O)SC(C)C2 (centres undefined),.,5.2%,9%,.,.
COc1ccc(S(=O)(=O)N2CCCC(C(=O)Nc3cccc(C(C)=O)c3)C2)cc1 (centres undefined),6.5e-09,1.3%,-3%,i,i
CCOC(=O)CN(C(=O)CSc1nnc(-c2ccc(OC)c(OC)c2)o1)c1ccccc1,1e-09,0.3%,8%,i,i
Cc1cccc(NC(=O)CSc2nnc(Cn3nnc(-c4ccccc4)n3)n2-c2ccccc2)c1,2.7e-08,2.0%,2%,i,i
O=C(O)c1ccccc1SCC(=O)N1CCCCC1,.,2.1%,16%,.,.
COc1ccc(-n2c(Cc3cccn3C)nnc2SCC(=O)N2CCCc3ccccc32)cc1,2.6e-09,2.5%,16%,i,i
O=C(c1cccnc1)N1CCN(C(=O)c2ccccc2F)CC1,.,-0.7%,2%[11.4 µM],.,.
C[C@H](N)CCCC(C)(C)O,5.8e-09,0.2%[25.7 µM],-15%[25.6 µM],i,i
O=C(Oc1ccc2c(c1)OCO2)c1ccc(F)cc1Cl,4.3e-09,0.9%,5%,i,i
CCCCOc1ccccc1NC(=O)c1ccco1,.,0.8%,?,.,.

# 5 of the compounds above, with values under each structure.
# Every second line gives: A647 autofl, AID923, TSHR agonist, Resorufin autofl, A488 autofl
> CCOC(=O)CN(C(=O)CSc1nnc(-c2ccc(OC)c(OC)c2)o1)c1ccccc1
  1e-09, 0.3%, 8%, i, i
> Cc1cccc(NC(=O)CSc2nnc(Cn3nnc(-c4ccccc4)n3)n2-c2ccccc2)c1
  2.7e-08, 2.0%, 2%, i, i
> O=C(O)c1ccccc1SCC(=O)N1CCCCC1
  ., 2.1%, 16%, ., .
> COc1ccc(-n2c(Cc3cccn3C)nnc2SCC(=O)N2CCCc3ccccc32)cc1
  2.6e-09, 2.5%, 16%, i, i
> O=C(c1cccnc1)N1CCN(C(=O)c2ccccc2F)CC1
  ., -0.7%, 2%[11.4 µM], ., .

# Record cards (already shown).
# `O=C(c1cccnc1)N1CCN(C(=O)c2ccccc2F)CC1` across the screens: A647 autofl: .; AID923: -0.7%; TSHR agonist: 2%[11.4 µM]; Resorufin autofl: .; A488 autofl: .
# `NC(=O)C1CCN(C(=O)c2cnn(-c3ccccc3)c2NC(=O)c2ccco2)CC1` across the screens: A647 autofl: .; AID923: -1.4%; TSHR agonist: -2%; Resorufin autofl: .; A488 autofl: .

# Later entries.
SMILES,A647 autofl,AID923,TSHR agonist,Resorufin autofl,A488 autofl
CC(C)C(C)(C#N)NC(=O)CSc1nc2scc(-c3ccco3)c2c(=O)n1-c1ccccc1 (centres undefined),1e-09,2.1%,.,i,i
CC1(C)CC(N=C=O)CC(C)(CN=C=O)C1 (centres undefined),.,-1.3%,-2%,.,.
CC(=O)Nc1ccc(S(=O)(=O)NCCSc2ccccn2)cc1,2.3e-08,2.4%,.,i,i
COc1ccc(CCNC(=O)c2nonc2N)cc1OC,4.7e-09,-0.2%,12%[11.4 µM],i,i
CC(=O)C1=C(O)C(=O)N(C)C1c1ccccc1F (centres undefined),.,-1.4%,?,.,.
COc1ccc(C2C(C(=O)N3CCCC3)c3cc(OC)c(OC)cc3C(=O)N2C)cc1 (centres undefined),2.3e-08,0.8%,4%,i,i
COCC(=O)N1CCC2(CCCN(Cc3cc(C(F)(F)F)cc(C(F)(F)F)c3)C2)CC1,1e-09,0.7%,-2%,i,i
CCc1c(C)c(C#N)c2nc3ccccc3n2c1-n1nc(C)cc1C,5.9e-08,.,.,i,i
CC(C)NS(=O)(=O)c1ccc(OCC(=O)NCc2ccccc2)cc1,4.9e-09,0.1%,2%,i,i
CCSC1=C(C#N)C2(CCCCC2)C(C#N)C(=O)N1 (centres undefined),.,11%,0%,.,.
O=C(NCC(=O)N(c1cnc2ccccc2c1)C(C(=O)NC1CCCC1)c1ccncc1)c1ccco1 (centres undefined),4.8e-09,0.4%,2%,i,i
CCOC(=O)C1CCN(c2cc(=O)n(Cc3ccc(F)cc3)c(=O)[nH]2)CC1,.,-3.4%,6%,.,.
COCCNC(=O)C(c1ccc(C)cc1)N(C(=O)CCC(=O)Nc1ccccn1)C1CCCC1 (centres undefined),1e-09,0.2%,2%,i,i
O=C1c2oc3ccccc3c(=O)c2C(c2cccc(F)c2)N1CCCO (centres undefined),4.7e-09,1.2%,21%,i,i
CCCNC(=O)NCCc1ccncc1,6.2e-09,1.2%,2%,i,i
COCC(=O)NCc1ccc2c(c1)OCO2,.,1.0%,-6%,.,.
COC(=O)c1cc(OC)c(OC)cc1NC(=O)c1c(-c2ccccc2Cl)noc1C,.,0.0%,?,.,.
Nn1c(Nc2ccccc2)nc2ccccc2c1=O,.,-1.5%,-5%,.,.
Clc1ccc(OCc2nc(-c3ccncc3)no2)c(Br)c1,.,0.3%,?,.,.
Cc1cc(NC(=O)CSc2nnc3c(C)cc4ccccc4n23)no1,7.4e-09,-0.2%,11%,i,i
Cc1cnc(CNc2ccnc(-c3ccccc3C(F)(F)F)n2)cn1,1e-09,0.2%,15%,i,i
Cc1nc2cnc(N(C)C)nc2n(CCC#N)c1=O,1.1e-09,21%,-6%,i,i
Cc1ccc(C)n1CCN1CCN(CC(=O)Nc2cc(C(F)(F)F)ccc2Cl)CC1,2.6e-08,-0.4%,.,i,i
CCOC(=O)CSc1nc2cc(C(=O)NCc3ccco3)ccc2c(=O)n1C1CCCCC1,8.2e-09,1.3%,-7%,i,i
CCN(CC)S(=O)(=O)c1ccc(C(=O)Nc2ccc(OCC(=O)N3CCOCC3)cc2)cc1,.,1.0%,4%,.,.
S=c1[nH]ncn1-c1ccccn1,6.9e-09,-1.7%,0%,i,i
COc1ccc(Cl)c(Cn2c(NCCCN(C)C)nc3c2c(=O)n(C)c(=O)n3C)c1,2.2e-08,2.8%,-5%,i,i
CCOC(=O)c1c(C)[nH]c(C(=O)OCC(=O)N2CC(C)OC(C)C2)c1C (centres undefined),3.5e-08,0.9%,0%,i,i
O=C(COc1ccc2ccccc2c1CN1CCOCC1)N1CCc2ccccc21,3.2e-08,-3.3%,?,i,i
CCOC(=O)CSc1nnc(NC(=O)c2cccc(S(=O)(=O)N3CCCC3)c2)s1,1e-09,0.1%,-23%,i,i
CC(C)=NOC[C@@H](O)COCc1ccco1,.,-2.1%[11.5 µM],0%[11.4 µM],.,.
CC1(C)[C@@H]2CC[C@@]1(C)C(=O)C2,.,2.6%,-3%,.,.
CCCNc1ncnc2sc(C)c(C)c12,1e-09,0.4%,17%,i,i
O=C(c1cc2ccccc2o1)N1CCN(c2ccccc2Cl)CC1,7.6e-09,-0.1%,-1%[11.4 µM],i,i
CCSc1nnc(-c2ccc(S(=O)(=O)N3CCCC3)cc2)n1C,3.8e-08,-0.7%,-1%,i,i
CSc1ccccc1NC(=O)c1ccco1,1e-09,1.4%,9%,i,i
COCCCNc1ncnc2nc[nH]c12,.,-6.4%,13%,.,.
Cn1c(SCc2nc3ccccc3s2)nnc1-c1ccc2c(c1)OCO2,1.7e-08,-0.5%,22%,i,i
Cn1c(=O)[nH]c(=O)c2c1nc(CN1CCOCC1)n2CCCO,1.2e-08,-0.9%,-1%,i,i
CCOC(=O)Cn1c(N)c(C(=O)OC)sc1=S,1e-09,3.3%,-18%,i,i
COc1ccc(O[C@H]2C=C[C@@H](c3ccccc3)O[C@H]2CO/N=C(/C)CCC(=O)OC[C@@H]2O[C@H](C#Cc3ccccc3)C=C[C@@H]2Oc2ccc(C)cc2)cc1,.,1.5%[11.5 µM],10%[11.4 µM],.,.
COc1ccc(OCC(=O)Nc2ccc(S(=O)(=O)N3CCCCCC3)cc2)cc1,5.1e-09,4.7%,?,i,i
Cc1nnc(SCCn2c(N3CCC(C)CC3)nc3c2c(=O)[nH]c(=O)n3C)s1,2.6e-09,1.2%,2%,i,i
COc1ccc2nc(SCC(=O)N3CCNC3=O)[nH]c2c1,1.1e-08,2.2%,1%[11.4 µM],i,i
CC(C(=O)Nc1cc(C(F)(F)F)ccc1N1CCOCC1)N1C(=O)C2CC=CCC2C1=O (centres undefined),1.4e-08,0.5%,1%,i,i
Nc1cc(-c2cccc(F)c2)nn1S(=O)(=O)c1cccc2nsnc12,.,2.6%,17%,.,.
CCCn1c(-c2ccc(F)cc2)nc2c(NCCCN(CCO)CCO)nc(C)nc21,.,0.1%,16%,.,.
CC(C)CCn1c(N2CCN(Cc3ccccc3)CC2)nc2c1c(=O)[nH]c(=O)n2C,2.4e-08,0.4%,14%,i,i
Cc1cccc(S(=O)(=O)NCCC(=O)OC(C)C(=O)NC(=O)NC2CCCCC2)c1 (centres undefined),2.3e-09,-0.5%,-6%,i,i
c1ccc2c(c1)sc1nnnn12,4.4e-09,1.6%,-1%,i,i
CCOc1ccc(C2N(c3ccc(OC)cc3)C(=O)C3CCCN32)cc1OC (centres undefined),.,2.5%,4%,.,.
CC(C)c1ccc(OCC(O)CN2CCN(c3ccccc3)CC2)cc1 (centres undefined),1.2e-09,-0.5%,-6%,i,i
O=c1c2ccccc2nnn1CSc1nnc(C2COc3ccccc3O2)n1-c1ccccc1 (centres undefined),1.9e-09,-0.5%,?,i,i
N#Cc1cccc(-c2ccc3ncnc(N4CCNCC4)c3c2)c1,1e-09,-0.4%,-4%,i,i
